Assay outcomes: PubChem BioAssay, several laboratories
CSC inhib: cancer stem cell viability inhibitors, primary screen, luminescence; inhibition, % at 7.5 µM; AID 2717, 2010; cancer stem cell-like cells viability; hit rate 1.1% among 300,000;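 active = mean at 75% or more and at least half the replicates too; inconclusive = mean and replicates disagree; tested in HMLE shEcad cells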;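 note: 0% = median of negative and 100% = median of positive control wells; the first replicate is given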
Env fusion inh: inhibitors of HIV-1 Env-driven cell-cell fusion, primary screen, HeLa-JRFL effector, CEM21 target cells, luciferase | inhibition, % at 12.3 µM | hit rate 1.1% among 360,000;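 active = mean replicate inhibition score of at least 50 and every replicate individually at or above 50; inconclusive = only one of the two criteria met; inactive = mean below 50 and not all replicates reaching 50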;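 note: 0% = plate neutral controls and 100% = maraviroc near 300 nM; one replicate is shown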
PABP polyA inh: PABP poly(A) RNA binding inhibitors, primary screen, biochemical, fluorescence polarization, uHTS; Polyadenylate-binding protein 1 (Homo sapiens), P11940; inhibition, % at 35 µM; hit rate 1% among 290,000; AID 2014, 2009;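 active = 50% or more with normal probe brightness, or confirmed in later tests; inconclusive = above 50% with abnormal brightness, or retests that disagree; inactive = below 50% or failed in later tests; about a fifth of its hits are not listed in these tables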;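 note: calls also rest on retests at 20 µM and on dose response follow-up; controls were probe without protein and protein plus probe with vehicle; some compounds called inactive have numbers as strong as hits; many hits fall short of the cut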
Target sequence (P11940 whole entry, looked up): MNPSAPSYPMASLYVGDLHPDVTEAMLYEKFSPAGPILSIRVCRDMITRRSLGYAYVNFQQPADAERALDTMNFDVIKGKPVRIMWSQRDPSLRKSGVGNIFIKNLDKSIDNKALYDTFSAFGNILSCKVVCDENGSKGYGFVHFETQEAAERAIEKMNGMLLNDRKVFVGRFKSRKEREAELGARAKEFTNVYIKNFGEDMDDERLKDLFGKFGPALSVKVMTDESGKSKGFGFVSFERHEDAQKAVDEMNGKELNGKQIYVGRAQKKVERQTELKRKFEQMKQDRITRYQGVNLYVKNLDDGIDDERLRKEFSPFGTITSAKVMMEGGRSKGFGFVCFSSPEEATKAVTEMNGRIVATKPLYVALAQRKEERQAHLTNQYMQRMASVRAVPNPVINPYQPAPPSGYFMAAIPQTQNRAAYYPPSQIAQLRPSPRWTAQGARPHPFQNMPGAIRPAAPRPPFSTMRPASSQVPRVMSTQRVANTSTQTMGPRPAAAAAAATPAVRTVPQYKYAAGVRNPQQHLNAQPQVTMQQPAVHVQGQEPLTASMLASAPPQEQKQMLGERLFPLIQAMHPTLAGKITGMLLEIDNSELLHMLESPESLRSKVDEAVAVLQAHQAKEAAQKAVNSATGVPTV
MT1-MMP act inh: blockers of MT1-MMP proenzyme processing, primary screen, HT1080 RFP-PRO-GFP cells, GFP/RFP fluorescence. Matrix metalloproteinase-14 (Homo sapiens), P50281. GFP/RFP ratio fluorescence, overnight; percent of plate control window, DMSO zero. GFP/RFP ratio change, % at 20 µM. hit rate 0.061% among 360,000;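 active = GFP/RFP ratio change of at least 30% with cell ATP level not reduced by more than half and red fluorescence within 50% of control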; note: strong numbers were not always called active
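Assay system – RFP-PRO-GFP reporter HT1080 cells · Compound dosing – single dose of 20 µM compound, 1% DMSO final · Incubation – overnight compound exposure at 37 °C · Measure – GFP/RFP fluorescence ratio · Benchmarks – DMSO wells and RFP-L50D-GFP cells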
Rce1 inh: yeast Rce1p protease inhibitors, primary screen, biochemical, fluorescence, cell-free homogeneous; CAAX prenyl protease 2 (Saccharomyces cerevisiae (strain ATCC 204508 / S288c)), Q03530; yeast membranes, quenched prenylated peptide cleavage fluorescence; calls only; hit rate 0.27% among 290,000; AID 2563, 2010;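 active = fall in fluorescence gain of 50% or more versus controls, with final raw signal at or below 3038400; inconclusive = same 50% fall but final raw signal above 3038400; inactive = fall in fluorescence gain under 50%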;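 note: plate controls were neutral control wells for no effect and wells lacking membranes for full effect; tested at 10 µM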
Target sequence (Q03530 whole entry, looked up): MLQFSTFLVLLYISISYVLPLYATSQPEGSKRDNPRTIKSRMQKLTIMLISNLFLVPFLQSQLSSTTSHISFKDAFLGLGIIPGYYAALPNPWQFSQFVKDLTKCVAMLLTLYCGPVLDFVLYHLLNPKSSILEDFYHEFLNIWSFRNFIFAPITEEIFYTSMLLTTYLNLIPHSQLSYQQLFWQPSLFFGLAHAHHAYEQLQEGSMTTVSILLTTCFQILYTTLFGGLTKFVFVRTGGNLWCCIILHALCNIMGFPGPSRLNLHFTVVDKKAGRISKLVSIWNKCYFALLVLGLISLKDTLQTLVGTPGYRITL
UUG fidelity: modulators of yeast start codon fidelity, primary screen, whole organism, S. cerevisiae, single point, plate reader; AID 602363, 2012; activity score, % at 18.7 µM; hit rate 0.13% among 350,000; S. cerevisiae UUG-firefly luciferase reporter, luminescence/redox ratio;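 active = replicate mean at a twofold rise or more, about +100% in these data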;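 note: firefly luciferase made from a UUG start codon reports start codon fidelity; reporter light over untreated wells divided by growth signal over untreated wells; some hits fall short of that in this replicate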
eIF4H FP inh: human eIF4H binding inhibitors, primary screen, translation initiation inhibitor project, biochemical, uHTS, fluorescence polarization; Eukaryotic translation initiation factor 4H (Homo sapiens), Q15056; eIF4H fluorescence polarization binding assay; inhibition, % at 35 µM; hit rate 0.94% among 290,000; AID 2012, 2009;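 active = 50% or more with normal probe brightness, or confirmed in later tests; inconclusive = above 50% with abnormal brightness, or retests that disagree; inactive = below 50% or failed in later tests; about a fifth of its hits are not listed in these tables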;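 note: calls also rest on retests at 20 µM and on dose response follow-up; 0% = protein and probe with vehicle and 100% = probe without protein; strong numbers were not always called active; many hits fall short of the cut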
MT1-MMP act inh RFP: recorded beside MT1-MMP act inh, whose call it bears; RFP signal change, %; measured here: RFP expression control read;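 0 = vehicle wells; hits needed this value within 50% of zero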
* marks the source's active call; other numbers are inactive results; i = inactive; ? = inconclusive; . = not tested or not shown. An unsorted share of the library (roughly 2.9% active in at least one column).

SMILES	CSC inhib	Env fusion inh	PABP polyA inh	MT1-MMP act inh	MT1-MMP act inh RFP	Rce1 inh	UUG fidelity	eIF4H FP inh
CCCCN=C1CC(C)(C)CC(=O)/C1=C(/O)CCCN1C(=O)c2ccccc2C1=O	-5	10	10	2	2	i	.	7
O=C(CSc1nc2ccccc2[nH]1)NCCCn1ccnc1	-3	4	-5	-6	-2	i	-14	-6
O=C(COC(=O)CNC(=O)C1CCCCC1)Nc1ccccc1Cl	-12	9	.	5	7	.	-11	.
CC(CCc1ccccc1)NC(=O)COC(=O)C(CCC(N)=O)NC(=O)c1ccc(F)cc1 (stereo not given)	-6	.	.	-2	-1	.	-1	.
Cc1cc2nc(CCl)cc(=O)n2[nH]1	0	21	-8	0	1	i	.	-5
CCCn1c(SCC(=O)N(C)C2CCS(=O)(=O)C2)nc2sc3c(c2c1=O)CCC3 (stereo not given)	-3	16	.	2	-4	.	.	.
COc1ccc(-n2c(=O)[nH]cc(C(=O)Nc3ccc4c(c3)OCO4)c2=O)cc1OC	-4	.	5	3	5	i	0	12
Cc1ccc(N2C(=O)CC(N3CCN(C)CC3)C2=O)cc1 (stereo not given)	.	.	1	.	.	i	.	7
CC(C)CCN1C(=O)c2ccc(C(=O)Nc3c[nH]c(=O)[nH]c3=O)cc2C1=O	-18	8	6	3	3	i	.	-6
Cc1cc(Oc2cccc3c2S(=O)(=O)N(C2CCCC2)CC(COCc2ccccc2)O3)cc(C)c1C (stereo not given)	.	?	.	-2	-12	.	-17	.
Cc1c(C)n(C)c2ccc(C(=O)Nc3cccc4ccccc34)cc12	34	.	-3	1	-2	i	-19	-16
CC(=O)C(/C=N/c1cc(-c2ccc(C)cc2)nn1-c1ccccc1)=C(\C)O	5	-90	-14	1	2	i	.	-5
N#CC(=C=[N-])c1nc2ccccc2nc1-[n+]1cccc(NC(=O)c2cccs2)c1	11	2	54*	0	5	i	-31	54*
CCC(C)[C@H](NC(=O)[C@@H]1CSC2c3ccccc3C(=O)N21)C(=O)NCC1CCCO1 (stereo not given in full)	0	-18	-6	-3	0	i	1	1
COc1cccc(C2C(C#N)=C(N)Oc3cc(C)n(Cc4ccccn4)c(=O)c32)c1OC (stereo not given)	2	.	0	-1	1	i	-4	-2
COc1ccc(OCCCC(=O)NNC(=O)c2ccncc2)cc1	-10	.	.	1	3	i	-5	.
CC1CN(C(=O)/C=C/c2ccc(SC(F)F)cc2)CC(C)O1 (stereo not given)	7	4	-1	3	0	i	12	-14
CCN1CCN(CC(=O)Nc2cccc(C)c2C)C(=O)C1=O	-5	-14	3	2	6	i	0	6
CCOC(=O)C1(CCCc2ccccc2)CCN(Cc2cnc(C)s2)CC1	-13	32	1	-1	-13	i	.	-4
CCC(C)N(C)C1CCN(C(=S)Nc2cccc(SC)c2)CC1 (stereo not given)	1	2	-4	5	3	i	-19	5
O=C(c1ccc(Cl)cc1)N1CCC(C(=O)N2CCN(c3ncccn3)CC2)CC1	.	-21	.	0	0	.	-13	.
COC(=O)Nc1cc(C)n(-c2ccccc2)n1	-6	-8	2	0	5	.	.	-10
CSC1=NCCN1C(=O)c1c(F)cccc1Cl	-6	.	-2	4	3	i	-3	7
CCN(CC)S(=O)(=O)c1ccc(-c2nnc(SCC(=O)Nc3ccc4c(c3)OCO4)o2)cc1	24	.	0	10	6	i	.	-6
Cc1cc(C(=O)CN2C(=O)C(=O)N(CCC3=CCCCC3)C2=O)c(C)n1C	11	-25	.	-4	6	.	-6	.
O=c1c2c(-c3ccc(Cl)cc3)csc2ncn1/N=C/c1cccc([N+](=O)[O-])c1O	6	21	0	0	-3	i	.	16
O=C(c1coc(=O)c2ccccc12)N1CCN(Cc2ccccc2)CC1	6	21	4	2	4	i	29	13
COc1ccc(C(=O)C2CCCN(C3Cc4ccccc4C3)C2)cc1OC (stereo not given)	.	9	7	2	0	i	.	-7
O=C(C1CC1c1ccccc1)N1CCN(c2cccc(Cl)c2)CC1 (stereo not given)	.	.	1	3	-3	.	-8	-5
Cc1cnc(C(=O)Nc2ccc(N3CCN(C(=O)OC(C)(C)C)CC3)cc2)cn1	-8	-22	7	-9	-11	i	-14	6
COC(=O)/C=C/c1oc2ccccc2c1C	-4	7	5	-4	-2	i	.	-6
NC(=O)c1ccc(NC(=O)c2ccc3c(c2)CCN3S(=O)(=O)c2ccccc2)cc1	-11	8	1	4	-1	i	0	-20
CCOC(=O)[C@@H]1[C@H]2COc3ccccc3[C@@H]2N2C(=O)N(c3ccc(Br)cc3)C(=O)[C@@]12C	.	29	.	3	2	.	-1	.
CCN(CC(=O)NCc1ccc(F)cc1)C(=O)C1CC1C (stereo not given)	-4	1	2	5	6	i	-16	-16
Cc1ccc(-c2cc(-c3ccccc3[N+](=O)[O-])[nH]n2)c(O)c1	-8	.	-6	-3	0	i	-10	1
COC(=O)c1sc(-c2ccc(Cl)cc2)cc1NC(=O)c1ccccc1C(=O)O	7	-4	7	1	6	i	.	-4
Cc1cccc(N2CCN(CC(=O)Nc3ccccc3[N+](=O)[O-])CC2)c1C	4	.	9	8	2	i	-10	8
O=C(O)c1ccc(NC(=S)NCc2ccccc2)cc1	-7	5	1	4	7	i	-13	-10
N#C/C(=C\c1cn(CC(=O)N2CCCC2)c2ccccc12)C(=O)NCc1ccc2c(c1)OCO2	-11	-14	-15	-1	4	i	.	-10
Cc1ccc(NS(=O)(=O)c2ccc(NC(=O)C3CC3)cc2)cc1C	.	3	-14	4	-13	i	3	-13
O=C(COC(=O)C1CC(O)CN1S(=O)(=O)c1ccc(Cl)cc1)c1ccccc1 (stereo not given)	.	-2	9	-4	0	i	-9	1
Cc1ccc(N(CC(=O)NC(C)(C)C)C(=O)CNC(=O)c2cccs2)cc1	-3	2	3	3	7	i	.	5
CC(Oc1ccc(-c2nnco2)cc1)C(=O)N1CCOCC1 (stereo not given)	-1	-29	.	-6	-1	i	0	.
COc1ccc(N2CCN(CC(O)COc3ccc4c(c3)CCC4)CC2)cc1 (stereo not given)	20	-44	1	8	5	i	5	-8
CCOC(=O)Cn1c(=N)n(CCOc2cccc(C)c2)c2ccccc21	5	-41	-4	2	2	.	6	-1

Looked up above.
For CSC inhib, CCOC(=O)C1(CCCc2ccccc2)CCN(Cc2cnc(C)s2)CC1 reads -13
For UUG fidelity, CCC(C)[C@H](NC(=O)[C@@H]1CSC2c3ccccc3C(=O)N21)C(=O)NCC1CCCO1 (stereo not given in full) reads 1
For UUG fidelity, COc1ccc(OCCCC(=O)NNC(=O)c2ccncc2)cc1 reads -5
For UUG fidelity, O=C(COC(=O)C1CC(O)CN1S(=O)(=O)c1ccc(Cl)cc1)c1ccccc1 (stereo not given) reads -9
For eIF4H FP inh, Cc1ccc(N2C(=O)CC(N3CCN(C)CC3)C2=O)cc1 (stereo not given) reads 7
For UUG fidelity, CCN(CC(=O)NCc1ccc(F)cc1)C(=O)C1CC1C (stereo not given) reads -16
For MT1-MMP act inh, CC(C)CCN1C(=O)c2ccc(C(=O)Nc3c[nH]c(=O)[nH]c3=O)cc2C1=O reads 3

Additional entries follow.
SMILES	CSC inhib	Env fusion inh	PABP polyA inh	MT1-MMP act inh	MT1-MMP act inh RFP	Rce1 inh	UUG fidelity	eIF4H FP inh
CN=C1S/C(=C\c2ccc(N3CCOCC3)cc2C)C(=O)N1C	13	.	-6	-6	-11	i	.	-9
O=C(CN1C(=O)COc2ccc(Cl)cc21)N1CCCCC1	-11	8	-6	2	1	i	-10	10
CCCOc1ccc(C(=O)c2nc3c(n2O)CCCCC3)cc1	11	-18	14	-1	1	i	-8	1
CC(=O)N1CCN(S(=O)(=O)c2cccc(C(=O)OCC(=O)N(CCC#N)c3ccc(F)cc3)c2)CC1	-3	.	.	2	3	.	1	.
CCOc1ccc(S(=O)(=O)NNS(=O)(=O)c2ccc(C)cc2C)cc1	1	6	1	2	2	i	-5	-17
COc1ccc(-c2nc(NC(=O)CSc3nnc(C)s3)ns2)cc1	17	.	-12	-6	-4	i	-12	-10
COC(=O)c1c(NC(=O)c2ccco2)sc2c1CC(C)(C)NC2(C)C	-4	8	-2	1	-1	i	-4	2
COc1ccc(C(=O)NCCC2=CCCCC2)cc1OC1CCN(C(C)C)CC1	8	-3	0	-2	-1	i	-15	-3
O=C(CSc1nnc(COc2cccc3cccnc23)o1)N1CCN(C(=O)c2ccco2)CC1	-21	.	2	0	1	i	-11	12
C=C(C)c1cccc(C(C)(C)NC(=O)NNC(=O)c2ccccc2O)c1	18	-4	-2	3	2	i	.	2
O=C1CC(c2cccc(F)c2)C2=C(CCCC2=O)N1 (stereo not given)	-4	.	3	0	2	i	-20	1
O=C(COC(=O)c1c(F)cccc1F)NC(=O)NCc1ccccc1	.	10	.	-4	4	.	9	.
COC(=O)c1cc(C(=O)CC(C)C)c[nH]1	-1	-2	4	0	3	i	-4	-4
O=C(CSc1nnc2ccc(-c3ccccc3)nn12)NCC1CCCO1 (stereo not given)	-11	12	-17	-3	-4	i	.	-10
COc1cccc(NC(=O)C2CCCO2)c1 (stereo not given)	-13	-11	6	0	1	i	-6	1
CCOC(=O)Cc1[nH]nc2c1C(C1C=CCCC1)C(C#N)=C(N)O2 (stereo not given)	9	.	6	-12	-9	i	-17	6
COc1ccc(OCCSc2nnc3sc4ccccc4n23)cc1	.	.	-4	5	0	i	-14	-11
CC1Cc2c([nH]c3ccccc23)C(=O)N1 (stereo not given)	-18	7	2	1	2	i	3	6
O=C(c1ccccc1)c1c[nH]cc1-c1ccccc1	-13	3	5	3	2	i	9	-7
COc1ccc(CCNS(=O)(=O)CCNC(=O)c2ccc3c(c2)OCO3)cc1	-14	0	.	0	6	i	-9	.
COc1ccc(CNC(=O)C[C@H]2C[C@H](C(=O)N3CCOCC3)[C@@]3(CCC4CCCC4)c4[nH]c5cc(-c6ccco6)ccc5c4CCN3C2=O)cc1OC	.	16	.	-7	-7	.	4	.
O=C(COC(=O)c1ccc2c(=O)n3c(nc2c1)CCC3)NC1CCS(=O)(=O)C1 (stereo not given)	-1	-23	0	3	3	i	.	6

Compound profiles, from the list above. Order of values: CSC inhib, Env fusion inh, PABP polyA inh, MT1-MMP act inh, MT1-MMP act inh RFP, Rce1 inh, UUG fidelity, eIF4H FP inh
O=C1CC(c2cccc(F)c2)C2=C(CCCC2=O)N1 (stereo not given) is listed as -4, ., 3, 0, 2, i, -20, 1
COc1ccc(CCNS(=O)(=O)CCNC(=O)c2ccc3c(c2)OCO3)cc1 is listed as -14, 0, ., 0, 6, i, -9, .
CCCCN=C1CC(C)(C)CC(=O)/C1=C(/O)CCCN1C(=O)c2ccccc2C1=O is listed as -5, 10, 10, 2, 2, i, ., 7
CCOC(=O)[C@@H]1[C@H]2COc3ccccc3[C@@H]2N2C(=O)N(c3ccc(Br)cc3)C(=O)[C@@]12C is listed as ., 29, ., 3, 2, ., -1, .
COc1ccc(-c2nc(NC(=O)CSc3nnc(C)s3)ns2)cc1 is listed as 17, ., -12, -6, -4, i, -12, -10
